Screening data from PubChem.
Autofluor counter: compound fluorescence in toxin protease inhibitor counterscreen; compound autofluorescence counterscreen, microsphere flow cytometry; hits give high values; fluorescence intensity (no concentration beside the values); actives 3.1% (n = 360,000); AID 624483;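 active = at least 3 SD above the mean of all compounds, about 16000 in these data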;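 also: 100 nL of 1 mM stock went into each well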
BJeLR lethal: kills HRASV12-expressing BJeLR cells; BJeLR (HRASV12) viability, CellTiter-Glo ATP luminescence, 48 h; reference of the scale not given here; actives 0.17% (n = 300,000); inhibition, % (test concentration not listed); AID 1554;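 active = replicate mean above 50%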;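 also: 50 nL library stock added to about 25 µL; numbers are from one replicate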
PrP UTR inh: inhibition of PrP 5' UTR reporter expression; cell-based PrP 5' UTR mRNA reporter, plate reader; actives 0.35% (n = 340,000); inhibition, % (no concentration beside the values);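 active = every replicate at 50% or more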;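 also: 0 = median of the neutral control wells; tested in H4 reporter cells; numbers are from one replicate; inactives centre near -14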
Starred values were filed as active, the others as inactive; nt = not tested or not shown. This is a subset; count on the stated rates, not on these rows.

SMILES | Autofluor counter | BJeLR lethal | PrP UTR inh
Nc1nc2ccccc2n1/N=C/c1ccc(-c2ccccc2)o1 | nt | 5 | -41
CN(c1ccccc1N(C)S(=O)(=O)c1ccccc1)S(=O)(=O)c1ccccc1 | nt | -13 | -21
COc1ccccc1NC(=O)c1cn(CCC#N)nc1-c1ccc(F)cc1 | nt | 7 | -3
Cc1ccc(/C=N/NC(=O)CSc2nc3ccccc3n2C)s1 | nt | -2 | -7
CN1N=C(C(C)(C)C)CC1=O | nt | 2 | -15
CCCCN(C)c1c(C)nc2ccc(C(=O)Nc3cc(-c4ccccc4)ccc3OC)cn12 | 2899 | nt | nt
COc1ccc([C@H]2CC(=O)C[C@@H](CCn3cc(-c4cccnc4)nn3)O2)cc1 | 5016 | nt | nt
OC[C@@H]1CN(Cc2cccnc2)C[C@H](n2cnc3c(N4CCCC4)ncnc32)O1 | 3888 | nt | nt
O=C(CSc1nccn1Cc1ccc(F)cc1)NC1CCCCC1 | 3453 | nt | nt
COc1ccccc1OCC(=O)NCC1CCCN(C(=O)c2cccc(C)c2)C1 (stereo unspecified) | 3597 | nt | nt
CCCNC(=O)C1(C)CCN(C(=O)c2ccc(F)cc2Cl)C1 (stereo unspecified) | 2838 | nt | nt
O=S1(=O)C[C@H](N2CC[C@@H](O)C2)[C@@H](COCc2ccccc2)N1 | 6135 | nt | nt
CC(=O)NCCNc1nc2cc(-c3ccccc3)sc2c(=O)n1C | 3848 | nt | nt
CC(C)CNC(=S)N1CCC(C(=O)c2ccc(Cl)cc2)CC1 | 3341 | nt | nt
Cc1cccc(NC(=O)CN2CCN(C(=O)CNC(=O)c3ccc(-c4ccccc4)cc3)CC2)c1C | 3616 | nt | nt

Some values from the entries so far.
OC[C@@H]1CN(Cc2cccnc2)C[C@H](n2cnc3c(N4CCCC4)ncnc32)O1 in Autofluor counter has 3888
CC(=O)NCCNc1nc2cc(-c3ccccc3)sc2c(=O)n1C in Autofluor counter has 3848

(cont.)
SMILES | Autofluor counter | BJeLR lethal | PrP UTR inh
COc1ccc(-c2ccc3[nH]c4c(c3c2)CCN2C(=O)[C@@H]([C@H](C)O)[C@@H](N(C)C(=O)Nc3ccccc3)C[C@@H]42)cc1 | 3522 | nt | nt
CC(=O)c1ccccc1C(=O)N1CCCC(CNC(=O)c2ccc(F)cc2)C1 (stereo unspecified) | 3530 | nt | nt
CCC(c1nnnn1-c1ccc(OC)cc1)N1CCC2(CC1)C(=O)NCN2c1ccccc1 (stereo unspecified) | 5998 | nt | nt
Cn1ccc2c(-c3ccc4[nH]ccc4c3)cc3c(c21)C1CCC3O1 (stereo unspecified) | 5920 | nt | nt
CCC(=O)N(C)C[C@@H]1Oc2ncc(Br)cc2C(=O)N([C@@H](C)CO)C[C@H]1C | 3468 | nt | nt
COc1ccc(CC(N)c2csc(NC(=O)Nc3ccccc3C(C)C)n2)cc1 (stereo unspecified) | 3048 | nt | nt
Cn1c(=O)c2c(n(C)c1=O)n(C)c(=O)n2C | 5510 | nt | nt
Nc1nc2c(ncn2[C@@H]2O[C@H](CNCc3ccc(Oc4cc(-n5cccn5)ncn4)cc3)[C@@H](O)[C@H]2O)c(=O)[nH]1 | 5734 | nt | nt
C[C@H]1COc2cccc(N(C)CCO)c2S(=O)(=O)N1 | 5658 | nt | nt
O=C(c1cnc(Cl)c(Cl)c1)N1CCN(S(=O)(=O)c2cccs2)CC1 | 4233 | nt | nt
CC1=CC(Cc2ccccc2)N(C)C(C(N)=O)C1 (stereo unspecified) | 5518 | nt | nt
O=C(NC1CCCCC1)c1[nH]c(C(F)(F)F)nc1-c1ccccc1 | 5475 | nt | nt
CC1(Oc2ccc3ccccc3c2)CCN(Cc2ccc(OC(F)(F)F)cc2)C1 (stereo unspecified) | 2807 | nt | nt
CCCC(=O)N1CCC1(C)C(=O)NS(=O)(=O)c1cc(C)ccc1F (stereo unspecified) | 2858 | nt | nt
COc1ccc(CCN2C(=O)CCC2(C)c2nnnn2Cc2ccccc2)cc1OC (stereo unspecified) | 4228 | nt | nt
CCCNC(=O)Nc1nc(C(N)c2ccc(OC)cc2)cs1 (stereo unspecified) | 2792 | nt | nt
CCOC(=O)C1(C)CCCN(C(=O)c2cc(F)cc(F)c2)C1 (stereo unspecified) | 3433 | nt | nt
COc1ccc(-c2ccc3c(c2)O[C@H](CN(C)C(=O)Nc2ccccc2F)[C@@H](C)CN([C@H](C)CO)S3(=O)=O)cc1 | 3774 | nt | nt
CC(NC(=O)C1CCCN1C(=O)OC(C)(C)C)C(=O)OCc1ccccc1 (stereo unspecified) | 5764 | nt | nt
CC(C)CNC(=O)C1(C)CCCCCN1C(=O)c1cccnc1 (stereo unspecified) | 3641 | nt | nt
CCCN(C)C1CN(Cc2cn(Cc3cccc(Cl)c3)nn2)S(=O)(=O)C1 (stereo unspecified) | 4236 | nt | nt
CCOC(=O)C1=CCN(S(=O)(=O)c2ccccc2C(=O)OC)C1c1ccc(Cl)cc1 (stereo unspecified) | 6166 | nt | nt
COCCN(CCOC)Cc1cc(=O)oc2cc(C)ccc12 | 5599 | nt | nt
COc1ccc(C(=O)N2CCC2(C)C(=O)NC(C)C)cc1OC (stereo unspecified) | 2867 | nt | nt
COCCNc1nc(Nc2ccc(C#N)cc2)c2sccc2n1 | 3776 | nt | nt
CCOC(=O)[C@]12CCC=C1N(Cc1ccc(Cl)cc1Cl)C(=O)[C@H](CC(=O)NCc1ccc(OC)c(OC)c1)C2 | 6048 | nt | nt
COc1ccc(C(NC(=O)C2CCN(CCOc3ccc(Cl)cc3Cl)CC2)c2ccccc2C)cn1 (stereo unspecified) | 3932 | nt | nt
O=C(CC[C@H]1O[C@@H](n2cnc3c(NC(=O)c4ccccc4)ncnc32)[C@H](O)[C@@H]1O)NCCCN1CCCC1=O | 5943 | nt | nt
COc1cccc(-c2cnc(C(O)c3ccc(-c4ccccc4)cc3)[nH]2)c1 (stereo unspecified) | 4023 | nt | nt
O=C(Nc1ccncc1)c1cc(-c2ccccc2)nc2ccccc12 | 3889 | nt | nt
CN(C)c1ccc(C=C(C#N)C(=O)c2ccccc2)cc1Br | 5851 | nt | nt
CN(c1ccc(O)cc1)c1ccc([N+](=O)[O-])c2nonc12 | 3656 | nt | nt
Cc1cc(C)nc(Nc2nc(C(N)Cc3ccc(F)cc3)cs2)n1 (stereo unspecified) | 3695 | nt | nt
Cc1cc(C)n2nc(-c3ccc(F)cc3)cc2n1 | 3988 | nt | nt
Cc1cccc(CNC(=O)c2sc(=O)n(Cc3c(C)cccc3C)c2C)c1 | 4040 | nt | nt
CN(C)C(=S)Oc1ccccc1C1(C)OCCO1 | 3732 | nt | nt
COc1ccc(Cc2c(-c3ccco3)nc3ccc(Br)cn23)c(C)c1 | 4506 | nt | nt
CCCc1c(C(=O)N/N=C/c2ccoc2)nnn1-c1nonc1N | 2855 | nt | nt
COc1cc(CNC(=O)c2cc(-c3cc(Cl)ccc3OC)n[nH]2)cc(OC)c1 | 3849 | nt | nt
Cc1cccc(C)c1NC(=O)C1c2ccccc2OCC(=O)N1CCCN1CCOCC1 (stereo unspecified) | 5556 | nt | nt
Cc1ccc2cccc([N+](=O)[O-])c2n1 | 3586 | nt | nt
CC(=O)Nc1ccc(C=Cc2ccc([N+](=O)[O-])cc2)cc1 | 3846 | nt | nt
O=C(OCc1ccccc1)N1CCC2CC1c1ccc(-c3ccc4c(c3)OCO4)cc12 (stereo unspecified) | 3450 | nt | nt
CCc1nc2c(OCc3cccc(Cl)c3)cccn2c1N(C)C(=O)c1ccc(OC)cc1 | 3954 | nt | nt
CCOc1ccc(CCN2C(=O)C(=O)N([C@@H](Cc3ccc(O)cc3)CN3CCC[C@H]3CN3C(=O)C(=O)NC[C@@H]3Cc3ccccc3)C[C@@H]2Cc2ccc(O)cc2)cc1 | 4155 | nt | nt
Cn1c(=O)c2cc(NC(=O)CCc3cccnc3)ccc2n1Cc1ccc(F)cc1 | 3629 | nt | nt
COCCNc1nc(Nc2ccc(C(=O)OC)cc2)c2sccc2n1 | 2815 | nt | nt
CCCCCCn1c(=O)n2n(c1=O)[C@@H]1CN(S(=O)(=O)c3ccc(C)cc3)C[C@]1(O)[C@@H](OC(=O)NCc1ccccc1)C2 | 3710 | nt | nt
Nc1[nH]c(C(=O)c2ccccc2)c(-c2ccc(F)cc2)c1C(=O)NCCc1c[nH]c2ccccc12 | 6015 | nt | nt
CC(C)NC(=O)N(C)C[C@@H]1OCc2cnnn2CCCC(=O)N([C@H](C)CO)C[C@@H]1C | 2944 | nt | nt
COc1cccc(C#CC2=CC(=O)CC(C)(C)C2)c1 | 3453 | nt | nt
O=C1NC[C@@H](CCCCN2CCN(CCC3CCCCC3)C(=O)C2=O)N(Cc2ccccc2)C1=O | 6190 | nt | nt
CC(=O)Nc1ccc(NC(=O)c2csc([C@H]3C[C@H](O)[C@@H](CO)O3)n2)cc1 | 3758 | nt | nt
CCN(CC)C(=O)C1=C(C)N(CCC2=CCCCC2)C(=O)C(CC(=O)NC2CCCC2)C1 (stereo unspecified) | 3271 | nt | nt
COc1ccc(S(=O)(=O)NC(=O)C2(C)CCN2C(=O)C(C)(C)c2ccccc2)cc1 (stereo unspecified) | 3905 | nt | nt
OC(c1ccccc1)c1ncc(-c2cccc(OCc3ccccc3)c2)[nH]1 (stereo unspecified) | 4038 | nt | nt
Cc1cc2nc(-c3ccccc3)c(Cc3cccc(Cl)c3)n2c(C)c1Br | 4680 | nt | nt
CC1=C(C(=O)N2CCOCC2)CC(CC(=O)NCCCN(C)C)C(=O)N1CCC1=CCCCC1 (stereo unspecified) | 2849 | nt | nt
Oc1ccc(-c2cnc3c(Nc4cccc(OC(F)(F)C(F)F)c4)nccn23)cc1 | 2821 | nt | nt
CCc1nc2c(OCc3cccc(Cl)c3)cccn2c1N(C)C(=O)c1ccncc1 | 3137 | nt | nt

Pulled by compound from the list above (7):
SMILES | Autofluor counter | BJeLR lethal | PrP UTR inh
CC(C)NC(=O)N(C)C[C@@H]1OCc2cnnn2CCCC(=O)N([C@H](C)CO)C[C@@H]1C | 2944 | nt | nt
COCCNc1nc(Nc2ccc(C#N)cc2)c2sccc2n1 | 3776 | nt | nt
COc1ccc(S(=O)(=O)NC(=O)C2(C)CCN2C(=O)C(C)(C)c2ccccc2)cc1 (stereo unspecified) | 3905 | nt | nt
O=C1NC[C@@H](CCCCN2CCN(CCC3CCCCC3)C(=O)C2=O)N(Cc2ccccc2)C1=O | 6190 | nt | nt
COCCN(CCOC)Cc1cc(=O)oc2cc(C)ccc12 | 5599 | nt | nt
OC[C@@H]1CN(Cc2cccnc2)C[C@H](n2cnc3c(N4CCCC4)ncnc32)O1 | 3888 | nt | nt
COc1ccc(-c2ccc3[nH]c4c(c3c2)CCN2C(=O)[C@@H]([C@H](C)O)[C@@H](N(C)C(=O)Nc3ccccc3)C[C@@H]42)cc1 | 3522 | nt | nt

Record cards (already shown).
Cn1c(=O)c2cc(NC(=O)CCc3cccnc3)ccc2n1Cc1ccc(F)cc1 as listed: Autofluor counter = 3629; BJeLR lethal = nt; PrP UTR inh = nt
OC(c1ccccc1)c1ncc(-c2cccc(OCc3ccccc3)c2)[nH]1 (stereo unspecified) as listed: Autofluor counter = 4038; BJeLR lethal = nt; PrP UTR inh = nt

Additional compounds:
SMILES | Autofluor counter | BJeLR lethal | PrP UTR inh
CCc1ccc2c(c1)NC(=O)C2(C)Cc1ccccc1C#N (stereo unspecified) | 3646 | nt | nt
O=C(COC(=O)c1cc(S(=O)(=O)N2CCOCC2)ccc1Cl)c1ccc[nH]1 | 4029 | nt | nt
CC[C@@H](NCCCn1ccc(NC(=O)OCc2ccccc2)nc1=O)c1ccccc1 | 3576 | nt | nt
C=Cc1ccc(Cn2c(C)c(C(=O)NCc3cccc([N+](=O)[O-])c3)sc2=O)cc1 | 5735 | nt | nt
Cc1ccc([C@H]2N[C@]3(CCCN(Cc4ccc(Br)cc4)C3=O)[C@H]3C(=O)N(C)C(=O)[C@@H]23)cc1 | 3600 | nt | nt
Cc1ccc(C)c(NC(=O)C2(C)CCN2C(=O)C(C)C)c1 (stereo unspecified) | 3983 | nt | nt
CC1(C(=O)NCCC#N)CCN1C(=O)CC(c1ccccc1)c1ccccc1 (stereo unspecified) | 3479 | nt | nt
CCNC(=O)C1CCCN(C(=O)c2ccc(F)c(Cl)c2)CC1 (stereo unspecified) | 3908 | nt | nt
